Compound activity from PubChem BioAssay.
TRPML1 inh – inhibitors of human TRPML1 channel; TRPML1-inducible cells, Ca2+ dye fluorescence, FDSS; hits give low values; inhibition of EC80 agonist-evoked calcium signal; activity change, negative = inhibition, % (concentration not given with the values); 390,000 compounds, 0.02% hits; in the data active means activity change below about -50%; inconclusive means about -30% to -50%; inactive means above about -30%;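 note: stimulus is agonist 54-4 at its EC80 concentration; % is set by controls: 0 for no effect and ±100 for the full control effect; the text of the record puts the active cut at -80%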
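Tet-induced TRPML1-DL cells loaded with Ca8 no-wash calcium dye were read kinetically on FDSS. Compound addition was followed by EC80 agonist 54-4 (4 uM final); inhibition was read over 110 s.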
Sfp PPTase inh – blocks B. subtilis Sfp PPTase activity | Biochemical Sfp PPTase activity, qHTS | Potency, µM, for inactives: max response, negative = inhibition, hits mostly inhibitors | 310,000 compounds, 3.5% hits; active = well fitted inhibition curve with a large enough effect; inconclusive = small, poorly fitted or top-dose-only effect, or another doubt; inactive = no such curve, though single readings can be large or run the other way;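 note: the enzyme is Sfp with the accession as filed and its product quenches rhodamine fluorescence; potency is the fitted concentration of half-maximal effect; 0% = enzyme reaction without inhibitor and -100% = no enzyme wells; top concentration of the series not given in the record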
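After 15 min at room temperature with compound, 15 nM Sfp received 5 uM rhodamine-CoA plus 12.5 uM BHQ-2-ybbR (50 mM Hepes pH 7.6, 10 mM MgCl2). Rate came from the fluorescence difference over 30 min, ex 525/em 598 nm.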
Menin MLL FP FL – displaces fluorescein MLL peptide from human menin; Fluorescence polarization, fluorescein-MLL peptide displacement from menin; FP activity change, % at 61.4 µM; 290,000 tested, under 10 active; AID 1766; inconclusive = falling polarisation curve, or a change in total fluorescence; inactive = total fluorescence flat and polarisation flat or rising; no compound was filed as active; the % refers to the polarisation; negative = inhibition;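 note: % of control where 0% means no effect; inhibitors lower the polarisation; unlabelled MLL peptide was the positive control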
gsp antagonist – gsp mutant antagonism | gsp-mutant cells, cAMP HTRF, 30 min; control for the full effect not named in the record | 340,000 compounds, 0.4% hits | Potency, µM (titrated, usually from 76.9 µM), inactives show top-dose activity change, negative = inhibition, usual class: inhibitors; active = falling curve of any shape with a large fitted effect; inconclusive = falling curve, mostly with a smaller effect; inactive = flat or rising curve; cell line not stated here;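 note: intracellular cAMP measured with PDE inhibitor Ro 20-1724 present during compound exposure; potency is the fitted concentration of half-maximal effect; % is set by controls: 0 for no effect and ±100 for the full control effect; nearly all actives have a fitted effect of over 65% in size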
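HTRF cAMP measurement after 30 min RT detection following 30 min, 37C compound treatment alongside […] (added as 300 uM solution) in G418-selected cells seeded at 2000/well and grown 16–24 h.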
ClpP mod – qHTS Assay for Activators of ClpP; 340,000 compounds, 1.9% hits; Potency, µM (top dose mostly 57.5 µM), inactives show at the top dose activity change, negative = active; purified B. subtilis ClpP, FRET peptide cleavage, 20 min; ATP-dependent Clp protease proteolytic subunit (Bacillus subtilis (strain 168)), P80244; AID 651965, 2013; active = well fitted falling curve with a large enough effect; inconclusive = small, poorly fitted or top-dose-only effect; inactive = no such curve, though single readings can be large or run the other way; note: potency is the fitted concentration of half-maximal effect; the source files actives as falling curves though it sought activators and does not explain the sign; nearly all actives have a fitted effect of over 65% in size; many hits overshoot -100%
Target sequence (P80244 whole entry, looked up): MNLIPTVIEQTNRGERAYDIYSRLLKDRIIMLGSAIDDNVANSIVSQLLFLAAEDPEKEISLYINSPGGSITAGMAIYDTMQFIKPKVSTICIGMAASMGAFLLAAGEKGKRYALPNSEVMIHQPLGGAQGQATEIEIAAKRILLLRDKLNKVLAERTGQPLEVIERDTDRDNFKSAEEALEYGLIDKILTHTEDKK
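FRET quenching reversal measured ClpP activation: 10 microg/mL B. subtilis ClpP at pH 8 with the FRET-FV decapeptide, read at 430 nm after 320 nm excitation. The 20-min minus 0-min signal was scaled between DMSO/no-enzyme wells and ADEP (5.8 microM final).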
gsp agonist – activates gsp, the McCune-Albright syndrome mutation; 340,000 compounds, 0.13% hits; Potency, µM (highest dose often 76.9 µM), inactives show at the highest dose activation (cAMP increase), usual class: activators; AID 624287; gsp mutant cells, cAMP HTRF, 30 min; control for the full effect not named in the record; active = well fitted activation curve with a large enough effect; inconclusive = small, poorly fitted or top-dose-only effect, or another doubt; inactive = no such curve, though single readings can be large or run the other way; cell line not stated here;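 note: phosphodiesterase inhibitor Ro 20-1724 added with compounds to block cAMP breakdown; potency is the fitted concentration of half-maximal effect; nearly all actives have a fitted effect of over 60% in size; about a fifth of the inactives were tested at one dose only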
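Cells stably selected in G418 were plated at 2000/well, grown 16-24 hr, then given compounds in DMSO with the PDE inhibitor […] (300 uM solution added) for 30 min at 37C; cAMP was read by HTRF.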
TRPV1 PAM – potentiators of human vanilloid receptor 1 (TRPV1); 320,000 compounds, 0.02% hits; potentiation, % at 8.33 µM; TRPV1-expressing cells, Fluo-8 calcium influx, capsaicin EC20 potentiation; host cell line not named in the record; control for the full effect not named in the record; AID 540277; active means potentiation above 80%; inconclusive means 30% to 80%; inactive means below 30%; note: 0% is about no effect
Target sequence (Q8NER1 whole entry, looked up): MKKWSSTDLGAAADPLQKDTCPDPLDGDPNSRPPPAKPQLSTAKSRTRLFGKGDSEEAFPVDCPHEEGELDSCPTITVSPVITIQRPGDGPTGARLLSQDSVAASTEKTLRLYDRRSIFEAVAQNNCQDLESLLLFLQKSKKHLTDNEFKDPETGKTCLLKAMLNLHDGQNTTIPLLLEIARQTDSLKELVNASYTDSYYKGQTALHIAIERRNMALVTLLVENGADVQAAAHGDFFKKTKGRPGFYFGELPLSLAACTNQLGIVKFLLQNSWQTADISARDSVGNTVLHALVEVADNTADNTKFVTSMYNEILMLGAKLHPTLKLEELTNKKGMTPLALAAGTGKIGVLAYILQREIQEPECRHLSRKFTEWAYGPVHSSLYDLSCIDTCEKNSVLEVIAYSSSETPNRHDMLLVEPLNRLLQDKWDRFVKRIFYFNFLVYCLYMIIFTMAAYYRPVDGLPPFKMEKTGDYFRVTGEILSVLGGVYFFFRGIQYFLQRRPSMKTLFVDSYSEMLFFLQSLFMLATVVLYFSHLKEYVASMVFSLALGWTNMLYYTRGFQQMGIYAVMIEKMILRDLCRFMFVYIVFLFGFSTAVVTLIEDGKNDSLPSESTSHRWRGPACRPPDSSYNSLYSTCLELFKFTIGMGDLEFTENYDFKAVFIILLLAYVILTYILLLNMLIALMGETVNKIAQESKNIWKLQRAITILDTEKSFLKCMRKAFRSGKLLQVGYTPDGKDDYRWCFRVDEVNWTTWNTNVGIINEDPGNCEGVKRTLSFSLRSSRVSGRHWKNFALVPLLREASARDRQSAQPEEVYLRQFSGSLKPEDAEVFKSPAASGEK
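TRPV1-expressing cells were cultured overnight at 35.5C and loaded with Fluo-8 calcium dye for 40 to 90 min at room temperature. After a 10 s baseline, compound was added and calcium influx was read kinetically for 3 min (ex 480/em 520 nm).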
Active calls of the source: *; ? = inconclusive; · = no result given; & = joins results of further samples; [ ] = another dose, or the depositor's remark. Rows were taken by chance; about 4.9% have a hit in one of these screens.

smiles	Menin MLL FP FL	gsp antagonist	gsp agonist	ClpP mod	Sfp PPTase inh	TRPV1 PAM	TRPML1 inh
C/C(=N\NC(=O)C(O)(c1ccccc1)c1ccccc1)c1ccc(NC(=O)CCCC(=O)O)cc1	4.0	9.0%	22.5%	1.0%	8.5%	15.8	-8.8
O=C(CSc1nnc(C2CC2)n1Cc1ccco1)NCC(F)(F)F	0.5	15.5%	17.3%	-1.4%	-22.7%	12.1	19.1
COc1ccccc1OCc1ccc(C(=O)N2CCOCC2)o1	6.2	-9.9%	?	6.2%	0.5%	-1.6	1.1
CCOC(=O)c1ccc(N/C=C2\CCCCC2=O)cc1	2.6	-2.0%	14.9%	-4.3%	10.9%	-10.0	-11.8
O=C(c1cccc(C(F)(F)F)c1)N1CCC(O)(CS(=O)(=O)Cc2ccccc2)CC1	4.7	-1.7%	-3.9%	-1.7%	11.6%	10.9	1.7
Nc1ccc(Nc2ccccc2)c(S(=O)(=O)O)c1	3.4	-1.6%	-10.7%[15.4 µM]	·	3.7%	-1.4	17.3
O=C(CSc1nnc(-c2n[nH]c3ccccc23)n1-c1ccccc1)Nc1ccccc1Cl	3.5	-23.6%	20.2%	-1.9%	-1.8%	11.1	-4.7
Cc1cc(NC(=O)CSc2nc(=O)cc(N)n2-c2ccc(Cl)cc2)no1	-3.2	12.2%	6.1%	·	0.9%	10.6	1.3
CCN(CC)c1ccc(/C=C2\CCC(/C=C(\C#N)C(=O)Nc3ccccc3F)=C2N2CCOCC2)cc1	?	8.2%	-88.5%[inhibitor]	-1.0%	7.0%	0.4	-2.3
Cc1cccc(-n2c(CNC(=O)c3ccccc3)nnc2SCC(=O)Nc2nccs2)c1	-1.3	10.1%	-46.2%[inhibitor]	-3.9%	5.0%	3.0	43.2
COc1ccc2nc(SCCN(C)C)[nH]c2c1	0.0	7.7%	-24.0%	0.8%	11.3%	4.4	8.7
COC(=O)c1[nH]c2cc(OC)c(OC)cc2c1NC(=O)CN1C[C@H]2C[C@@H](C1)c1cccc(=O)n1C2	·	-4.2%	·	3.7%	·	-8.0	4.0
C[C@H](NC(=O)OCc1ccccc1)C(=O)N[C@@H](Cc1c[nH]c2ccccc12)C(=O)O	·	9.2%	-53.3%[inhibitor]	-1.2%	·	11.0	-18.3
COc1ccccc1-c1nc(S(=O)(=O)c2ccccc2)c(N2CCCCC2)o1	0.0	0.1%	-26.6%[15.4 µM]	·	?	-19.0	-8.5
CCc1cc2c(SCC(=O)O)ncnc2s1	-2.9	-6.1%	9.2%	-2.6%	14.5%	6.1	4.9
c1ccc(NC2=NCCN2CC2CCC2)cc1	·	11.5%	·	-0.1%	·	-4.2	-5.8
CCOc1ccc2nc(SCC(=O)NCc3ccc4c(c3)OCO4)[nH]c2c1	2.5	2.4%	-34.5%[inhibitor]	-0.4%	0.8%	9.4	11.9
Cc1cc(C(=O)Nc2ccccc2N2CCCCC2)no1	2.6	0.8%	-3.2%[15.4 µM]	-2.5%	-5.4%	-9.3	-11.8
CCOC(=O)C1=C(C)N=c2s/c(=C\C(=O)OC)c(=O)n2C1c1ccc(OC)cc1 (configuration not stated)	3.6	1.6%	-3.9%	-0.5%	7.7%	-6.4	0.5
COc1ccc(CN(C)C(=O)c2cccc(Oc3ccccc3)c2)c(OC)c1OC	1.5	?	2.0%	·	-0.9%	-4.1	3.3
COCCOCCn1cnc2ccccc21	5.7	8.8%	-50.7%[inhibitor]	2.0%	9.8%	-5.6	16.1
CN(C(=O)COC(=O)c1ccc2c(c1)OCO2)c1c(N)n(Cc2ccccc2)c(=O)[nH]c1=O	·	6.6%	-1.3%	-16.7%	·	17.6	-0.3
Cc1ccc(NC(=O)C(C)OC(=O)CCN=C2NS(=O)(=O)c3ccccc32)cc1 (configuration not stated)	·	-4.6%	4.7%	-0.2%	·	9.5	0.9
COc1ccc([C@H]2CC(=O)C=C(c3ccnc4ccc(Cl)cc34)C2)cc1	·	?	·	-2.2%	·	-6.9	35.8
CCOC(=O)C(C(=O)Nc1nc2ccccc2s1)C1CCCCC1 (configuration not stated)	7.3	-8.3%	6.2%	-5.6%	7.3%	1.9	-17.7
O=C(CN1C(=O)c2ccccc2C1=O)N1CCN(c2nnc(-c3ccccc3)c3ccccc23)CC1	-2.5	4.1%	-15.9%	0.8%	-0.3%	-10.4	-5.3
COc1ccccc1C1=CN(Cc2ccccc2)CCC1=O	·	-5.6%	0.6%	0.1%	·	·	-8.2
COc1cc(C(=O)OCC(=O)N2CCCC2)cc2c1OCCO2	·	12.8%	17.5%	-7.1%	·	-4.0	-5.2
Cc1ccc(C(=O)O)cc1S(=O)(=O)Nc1ccccc1C(=O)NC1CC1	·	1.0%	19.6%[15.4 µM]	-15.0%	·	0.8	-21.3
COc1ccc(OC2C(=O)N(Cc3ccc(F)cc3)C2c2cc(OC)c(OC)c(OC)c2)cc1 (configuration not stated)	10.1	-0.1%	?	3.8%	9.7%	8.4	0.0
Cc1cc(NCCN2CCOCC2)c2ccc3ccccc3c2n1	-5.5	-6.7%	-60.4%[inhibitor]	?	20.0%	-0.3	23.4
O=C(c1ccco1)N1CCN(c2ncnc3c(-c4ccccc4)nsc23)CC1	8.4	?	25.0%	-21.7%	?	2.1	0.3
CCN(CC)c1ccc2cc(C(=O)Nc3ccc(-n4cnnn4)c(OC)c3)c(=O)oc2c1	?	·	·	·	4.2%	6.6	·
CNc1ccc(Cl)cc1C(N)=O	2.2	7.2%	-4.4%	·	2.9%	12.0	7.9
O=C(Nc1cccc(C(F)(F)F)c1)c1cncs1	-11.3	2.5%	-32.3%[inhibitor]	-0.2%	0.6%	-30.5	4.9
CCc1ccc(CN2CCCC(CNC(=O)c3cccc(OC)c3OC)C2)cc1 (configuration not stated)	-3.2	7.7%	?	·	18.6%	-4.7	-18.6
Cc1ccc(C(C)C)c(OCC(=O)Nc2ccc3c(c2)nc(CN2CCCC2)n3C)c1	3.5	2.5%	-17.8%	1.1%	?	14.5	1.2
CS(=O)(=O)/C(C#N)=C/c1c(-c2ccccc2)nc2n1CCS2	?	-16.9%	12.7%	-0.9%	2.6%	11.7	-1.7
COc1ccc(NC(=O)C[C@H]2C(=O)N(c3ccc(OC)cc3)C[C@@H]2c2ccc(Br)cc2)cc1	·	·	-3.2%	-2.0%	·	·	6.1
COc1cc(OC)cc(C(=O)Nc2cccc(NC(=O)c3cc(OC)cc(OC)c3)n2)c1	·	-11.4%	-5.0%	·	·	·	-29.7
CC(=O)c1cnc(-c2ccccc2)s1	-1.4	-1.1%	13.5%[15.4 µM]	·	7.7%	-2.7	18.0
COc1ccc(-c2csc(NC(=O)CSc3ccc(Br)cc3)n2)c(OC)c1	1.8	-0.2%	-55.0%[inhibitor]	-1.9%	5.5%	15.3	-6.0
COc1ccccc1N1CCN(C(=O)C2CCCN(S(=O)(=O)c3ccc4c(c3)oc(=O)n4C)C2)CC1 (configuration not stated)	-1.4	?	0.5%	-1.1%	11.3%	0.8	-1.3&7.0
COc1ccc2nc(NC(=O)c3cccc(N4C(=O)CCC4=O)c3)sc2c1	·	-3.2%	?	-2.4%	·	13.7	7.6
COC(=O)c1[nH]c2ccc(C)cc2c1NC(=O)C(C)N1CCN(C2CCCCC2)CC1 (configuration not stated)	2.2	8.4%	-43.0%	32.6%	-8.2%	-3.5	-19.5
CCC1=NC(c2ccc(OC)cc2)N(O)C1(C)C (configuration not stated)	-0.5	8.8%	-2.1%	-0.7%	12.4%	19.7	22.8
Cc1csc2nc(O)c(C(=O)NCCC3=CCCCC3)c(=O)n12	·	8.1%	11.8%	-1.0%	·	3.4	11.1
COc1nc(OC)nc(Oc2ccc(Cl)cc2[N+](=O)[O-])n1	·	10.1%	-6.2%	-2.7%	2.4%	-6.0	-9.7
COc1ccc(CNS(=O)(=O)NCc2ccc(C)cc2)cc1	3.0	7.4%	7.6%	·	-2.7%	-6.0	0.9
CC(=O)Nc1ccc(S(=O)(=O)N2CCCN(S(=O)(=O)c3ccc(NC(C)=O)cc3)CC2)cc1	-1.3	0.4%	-37.7%[inhibitor]	1.1%	18.5%	6.7	1.3

Additional entries follow:
smiles	Menin MLL FP FL	gsp antagonist	gsp agonist	ClpP mod	Sfp PPTase inh	TRPV1 PAM	TRPML1 inh
N/C(=N\OC(=O)CC1CCCCC1)c1ccc(Cl)cc1	·	9.9%	-13.0%[15.4 µM]	-1.5%	10.7%	-9.3	8.0
COc1cc(C(=O)NCCC(=O)NCCCN2CCCCC2C)cc(OC)c1OC (configuration not stated)	5.3	5.2%	-39.8%[inhibitor]	-4.3%	5.4%	-2.6	-0.6
Cc1cc(CNC(=O)Cc2ccccc2)c2ccccc2n1	-2.3	1.2%	-5.0%[15.4 µM]	-16.9%	15.8%	-0.3	-19.3
Cc1ccc(NC(=O)CCC(=O)OCC(=O)c2ccc(Oc3ccc([N+](=O)[O-])cc3)cc2)c(C)c1	8.9	-16.2%	2.5%	-0.6%	-20.1%	-29.2	17.5
CSc1ncc(CN2CCCC(C(=O)c3ccc(C(C)(C)C)cc3)C2)cn1 (configuration not stated)	-1.0	-27.2%	?	2.7%	7.5%	-7.3	-1.1
COCCN(C(=O)c1ccc(N(C)S(=O)(=O)c2ccc(C)cc2)cc1)c1c(N)n(CC(C)C)c(=O)[nH]c1=O	·	10.0%	10.6%	-1.1%	·	·	-8.1
C=CCn1c(SCC(=O)NC2CCCc3ccccc32)nnc1-c1ccncc1 (configuration not stated)	4.0	4.1%	5.3%	1.2%	11.8%	-7.1	18.1
